Compound activity from PubChem.
VDR inhibitor: Inhibitors of the vitamin D receptor (VDR): qHTS | Vitamin D3 receptor (Homo sapiens), P11473 | VDR-SRC2-3 peptide fluorescence polarization, 2 h | Potency, µM, for inactives: max response, negative = inhibition, most hits filed as inhibitors | 0.93% of 400,000 active | AID 504847, 2011; active = well fitted inhibition curve with a large enough effect; inconclusive = small, poorly fitted or top-dose-only effect, or another doubt; inactive = no such curve, though single readings can be large or run the other way; also: series mostly up to about 120 µM
Target sequence (P11473 whole entry, looked up): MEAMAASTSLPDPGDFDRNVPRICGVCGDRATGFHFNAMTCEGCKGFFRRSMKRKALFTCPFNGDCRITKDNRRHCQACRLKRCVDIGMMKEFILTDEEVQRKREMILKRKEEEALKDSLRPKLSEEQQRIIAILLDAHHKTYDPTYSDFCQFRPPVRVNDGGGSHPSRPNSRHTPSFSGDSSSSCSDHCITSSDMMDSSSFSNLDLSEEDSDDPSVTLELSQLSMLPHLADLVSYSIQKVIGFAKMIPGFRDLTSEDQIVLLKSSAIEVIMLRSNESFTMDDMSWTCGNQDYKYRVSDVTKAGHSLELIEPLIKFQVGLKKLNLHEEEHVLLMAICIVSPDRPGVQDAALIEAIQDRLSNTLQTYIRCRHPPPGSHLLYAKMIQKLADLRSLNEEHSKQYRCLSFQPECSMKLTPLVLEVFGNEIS
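Fluorescence polarization assay of small-molecule disruption of VDR binding to coregulator peptide SRC2-3. Compounds and controls pin-transferred, then read after 2 h incubation at ambient room temperature.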
Numbers without * were called inactive; [ ] = remark or other dose. % is scaled to controls: 0 for no effect and ±100 for the full control effect; potency is read from the fitted curve at half-maximal effect. The list is partial; count on the stated rates, not on these rows.

Results for Cc1cc2cc(CN(Cc3cccs3)S(=O)(=O)c3ccc4c(c3)OCCO4)c(=O)[nH]c2cc1C ?
VDR inhibitor: -21.4%

How did C=CCCCCCCCCC(=O)NNC1=CC(=O)CC(C)(C)C1 do in these assays?
VDR inhibitor: 2.3%

How did O=C(CCn1c(=O)c2sccc2n(Cc2ccccc2F)c1=O)NCc1ccc2c(c1)OCO2 do in these assays?
VDR inhibitor: 4.6%

Results for CC1CCCC(NC(=O)COC(=O)c2cc(S(=O)(=O)N3CCCCC3)ccc2N2CCOCC2)C1C (centres undefined) ?
VDR inhibitor: 9.8%

Results for O=S(=O)(c1ccccc1)N1CCN(c2cccc(Cl)c2)CC1 ?
VDR inhibitor: 7.6%

How did COc1ccc(S(=O)(=O)N2CCCC(N(C)CCc3ccccc3)C2)cc1OC (centres undefined) do in these assays?
VDR inhibitor: -0.7%

Results for CC(=O)c1ccc(N/C=C/C(=O)c2ccc(Br)cc2)cc1 ?
VDR inhibitor: -12.4%

How did Cn1nnc(NC(=S)NC(=O)Cc2ccccc2)n1 do in these assays?
VDR inhibitor: -7.7%

How did Cc1ccc(C)c(NC(=O)C(C)n2c(=O)cc(C(F)(F)F)c3c(C)nn(C)c32)c1 (centres undefined) do in these assays?
VDR inhibitor: 4.8%

Results for O=C(Nc1ccc(OC(F)F)c(Cl)c1)C(c1ccccc1)c1ccccc1 ?
VDR inhibitor: -24.0%

Results for COC(=O)CC1C(=O)NCCN1C(=O)CSc1nnnn1-c1ccc(OC)cc1 (centres undefined) ?
VDR inhibitor: -8.7%

Results for O=c1nc2sc3ccccc3n2c(=O)n1-c1ccc(Cl)c(Cl)c1 ?
VDR inhibitor: -7.5%

Results for O=C(/C=C/c1ccccc1)OCC(=O)N1CCCC1 ?
VDR inhibitor: 2.5%

How did C=CCC1(CC=C)CCCN1C(=O)CC1C(=O)NCCN1Cc1cccc(OC)c1OC (centres undefined) do in these assays?
VDR inhibitor: 1.0%

How did Cc1ccc(Nc2ccc(C(N)=O)cc2[N+](=O)[O-])cc1C do in these assays?
VDR inhibitor: -21.5%

What do the screens show for `COc1cccc(-n2cc(C(=O)Oc3ccc(F)cc3)c3ccccc3c2=O)c1`?
VDR inhibitor: 0.3%

How did C=C1CC(C(=O)N/N=C/c2ccc(O)cc2)C1 do in these assays?
VDR inhibitor: 14.1%

What do the screens show for `CCCOc1ccc(CNC(=O)c2ccc3c(c2)N(Cc2ccccc2)CCS3)cc1`?
VDR inhibitor: -6.5%

Results for O=C(NCC(c1cccs1)N1CCOCC1)c1ccccc1NS(=O)(=O)c1ccc(Cl)c([N+](=O)[O-])c1 (centres undefined) ?
VDR inhibitor: 5.1%

Results for Cn1c(C(=O)N2CCN(c3ccc(F)cc3)CC2)cc2ccccc21 ?
VDR inhibitor: 0.7%

Results for O=[N+]([O-])c1ccccc1/C=N/NC1=NCCCCC1 ?
VDR inhibitor: -17.8%

What do the screens show for `COc1ccccc1C(=O)NC(CCSC)C(=O)NNC(=O)C(C)Oc1ccccc1F` (centres undefined)?
VDR inhibitor: 4.7%

How did COCCCNC(=O)C[C@H]1C[C@H](C(=O)N2CCOCC2)[C@@]2(CCC3CCCC3)c3[nH]c4cc(-c5ccco5)ccc4c3CCN2C1=O do in these assays?
VDR inhibitor: -21.3%

How did Cn1c(SCC(N)=O)nnc1-c1ccccc1 do in these assays?
VDR inhibitor: 1.8%

Results for Cc1ccc(C)c(S(=O)(=O)Nc2ccccc2C(=O)Nc2cc(C)on2)c1 ?
VDR inhibitor: 21.2%

How did O=C(CCN1CCCCC1)N1CCc2c([nH]c3ccccc23)C1c1cccnc1 (centres undefined) do in these assays?
VDR inhibitor: -7.6%

What do the screens show for `Cc1ccc(S(=O)(=O)Nc2cccc(Oc3cnccn3)c2)cc1`?
VDR inhibitor: -23.7%

What do the screens show for `CCc1ccccc1N(C)C(=O)Cc1c(C(=O)O)c(C)cn1C`?
VDR inhibitor: 8.4%

Results for Cc1cc(NC(=O)COC(=O)c2cc(S(=O)(=O)N(C)C)ccc2Cl)no1 ?
VDR inhibitor: 0.5%

How did CCN1CCN(C(=O)c2c(-c3ccccc3)noc2C)CC1 do in these assays?
VDR inhibitor: -11.3%

Reprinted from the part before: two compounds, then new ones.
Results for Cc1cc(NC(=O)COC(=O)c2cc(S(=O)(=O)N(C)C)ccc2Cl)no1 ?
VDR inhibitor: 0.5%

How did CCN1CCN(C(=O)c2c(-c3ccccc3)noc2C)CC1 do in these assays?
VDR inhibitor: -11.3%

What do the screens show for `CCc1cccc(NS(=O)(=O)c2c(C)n[nH]c2C)c1`?
VDR inhibitor: 11.2%

What do the screens show for `CC(C)(C)n1nc2c(c1NC(=O)COc1ccc(Cl)cc1)CS(=O)(=O)C2`?
VDR inhibitor: -8.5%

How did Cc1oc2ccc(O)c(CN3CCOCC3)c2c1C(=O)Nc1cccc(Cl)c1C do in these assays?
VDR inhibitor: 16.8%

What do the screens show for `Cc1[nH]c2ccccc2c1N=Nc1c(C)n(C)n(-c2ccccc2)c1=O`?
VDR inhibitor: -8.2%

What do the screens show for `Cc1ccc(C(=O)N2CCC(N3CCN(Cc4ccc(F)cc4)C(=O)C3=O)CC2)cc1`?
VDR inhibitor: 18.0%

What do the screens show for `Cc1c(C)n(CCc2c[nH]c3ccccc23)ccc1=O`?
VDR inhibitor: -18.2%

How did CC(C)(C)OC(=O)C[C@@H]1C/C=C\C[C@H](CC(=O)N(CCO)Cc2ccccc2)C(=O)N[C@H](Cc2ccccc2)COC1=O do in these assays?
VDR inhibitor: 3.3%

What do the screens show for `COCCCNC(=O)C1CC(=O)N(c2ccc(C)cc2)C1` (centres undefined)?
VDR inhibitor: -10.4%

What do the screens show for `Cc1ccc(-c2cc(C(=O)NCc3cccs3)no2)cc1`?
VDR inhibitor: -11.8%

What do the screens show for `Cc1c(C(=O)N2CCCc3ccccc32)oc2ccc(S(=O)(=O)N3CCOCC3)cc12`?
VDR inhibitor: -21.2%

Results for O=C(COC(=O)CCC(=O)c1ccc(Cl)cc1)NCC1CCCO1 (centres undefined) ?
VDR inhibitor: 11.9%

How did Cc1cc(S(=O)(=O)NCc2ccccc2)ccc1OCC(=O)NCc1ccncc1 do in these assays?
VDR inhibitor: -4.2%

Results for COc1ccc(CNC(=O)c2ccc3nc(CCc4ccccc4)oc3c2)c(OC)c1 ?
VDR inhibitor: -0.8%

What do the screens show for `O=P(c1ccccc1)(c1ccccc1)C(O)c1ccc(Br)cc1` (centres undefined)?
VDR inhibitor: -11.1%

How did CCCC(=O)Nc1ccc(Br)cn1 do in these assays?
VDR inhibitor: 15.7%

How did COc1ccc(NC(=O)c2sc3nc4c(cc3c2N)CCCCCC4)cc1Cl do in these assays?
VDR inhibitor: inconclusive

How did CC(C)C[C@@H](CN1CCC[C@@H]1CN1C(=O)C(=O)NC[C@@H]1Cc1ccccc1)N1C[C@H](Cc2ccc(O)cc2)N(CC2CCCCC2)C(=O)C1=O do in these assays?
VDR inhibitor: 5.4%

What do the screens show for `CC(C)CCN1C(=O)c2ccc(C(=O)Nc3ccccc3C(=O)O)cc2C1=O`?
VDR inhibitor: -16.0%

How did C/C(=N\S(=O)(=O)c1ccc(C)cc1)N(C)C do in these assays?
VDR inhibitor: 18.5%

Results for Cc1nc(Nc2ccc(Cl)c(Cl)c2)sc1C(/C=C/c1ccc2c(c1)OCO2)=NNc1ccc([N+](=O)[O-])cc1[N+](=O)[O-] ?
VDR inhibitor: -5.0%

Results for COc1ccc(C(=O)N=S2CCN(C(=O)c3ccc(Cl)cc3)CC2)cc1 ?
VDR inhibitor: 2.7%

Results for CCOc1cccc(OCCOc2ccc(C(=O)c3ccccc3)cc2)c1 ?
VDR inhibitor: -17.4%

What do the screens show for `Cc1cc(C)c2cc(C#N)c(SCC(=O)Nc3ccc4c(c3)OCO4)nc2c1`?
VDR inhibitor: -9.6%

What do the screens show for `CCOc1cc(N2CCOCC2)c(OCC)cc1NC(=O)CN1C(=O)NC2(CCCCCCC2)C1=O`?
VDR inhibitor: 93.6%[activator]

How did O=C(NCc1cccnc1)C(=O)Nc1nc(-c2ccccc2)cs1 do in these assays?
VDR inhibitor: 18.8%

What do the screens show for `COc1cccc(-n2c(=O)c3sc4ccccc4c3n(Cc3c(F)cccc3Cl)c2=O)c1`?
VDR inhibitor: 2.1%

Results for CC(OC(=O)c1cc(=O)[nH]c2ccccc12)C(=O)NC1CCCCC1C (centres undefined) ?
VDR inhibitor: 1.6%

Results for Cc1ccc(-c2nc(CSCC(=O)N3CCN(C(=O)c4ccco4)CC3)c(C)o2)cc1 ?
VDR inhibitor: -23.6%

What do the screens show for `Cc1ccc(NC(=O)Cn2cccc2)c(C)c1`?
VDR inhibitor: -0.8%

How did NS(=O)(=O)c1ccc(N/N=C/c2ccc(C(=O)O)cc2)c([N+](=O)[O-])c1 do in these assays?
VDR inhibitor: 6.6%

Looked up one by one from the entries so far:
Results for Cc1nc(Nc2ccc(Cl)c(Cl)c2)sc1C(/C=C/c1ccc2c(c1)OCO2)=NNc1ccc([N+](=O)[O-])cc1[N+](=O)[O-] ?
VDR inhibitor: -5.0%

Results for CCOc1cccc(OCCOc2ccc(C(=O)c3ccccc3)cc2)c1 ?
VDR inhibitor: -17.4%

Results for CC(OC(=O)c1cc(=O)[nH]c2ccccc12)C(=O)NC1CCCCC1C (centres undefined) ?
VDR inhibitor: 1.6%

How did COc1ccc(NC(=O)c2sc3nc4c(cc3c2N)CCCCCC4)cc1Cl do in these assays?
VDR inhibitor: inconclusive

How did NS(=O)(=O)c1ccc(N/N=C/c2ccc(C(=O)O)cc2)c([N+](=O)[O-])c1 do in these assays?
VDR inhibitor: 6.6%

Next results:
What do the screens show for `COC(=O)C1=NNC2(c3ccc(C)cc3)C(=O)N(c3ccc(C)cc3)C(=O)C12` (centres undefined)?
VDR inhibitor: -1.7%

What do the screens show for `CCOC(=O)N1CCC2(CC1)OC(=O)C(C)=C2C(=O)NCc1ccccc1OC`?
VDR inhibitor: 2.9%

What do the screens show for `O=C(NCc1ccncc1)c1cccc(F)c1`?
VDR inhibitor: 7.7%

What do the screens show for `Cc1ccc(C2=NN(CC(=O)NCCN(C)C)C(=O)CC2)cc1`?
VDR inhibitor: 1.1%

How did NS(=O)(=O)c1ccc(S(=O)(=O)c2ccccc2)nc1 do in these assays?
VDR inhibitor: 4.9%

Results for CCCCCC(=O)Nc1ccc(S(=O)(=O)Nc2cc(OC)nc(OC)n2)cc1 ?
VDR inhibitor: -3.5%

What do the screens show for `Cc1cc(C)n(C(=O)CN2C(=O)c3ccccc3C2=O)n1`?
VDR inhibitor: 6.6%

Results for COc1ccc(/C=C2\SC(=O)N(CCCC(=O)Nc3cc(Cl)ccc3C(=O)O)C2=O)cc1 ?
VDR inhibitor: -17.0%

What do the screens show for `Cn1c(=S)[nH]c2cccnc21`?
VDR inhibitor: -10.9%

How did CCCCCCNC(=O)c1c(O)c2ccccc2[nH]c1=O do in these assays?
VDR inhibitor: 5.9%

How did O=c1[nH]c2ccc(Cl)cc2c(O)c1-c1ccccc1 do in these assays?
VDR inhibitor: -9.7%

What do the screens show for `COc1ccc(N)cc1-n1cnnn1`?
VDR inhibitor: -21.7%

Results for O=C(NN1CCOCC1)c1ccco1 ?
VDR inhibitor: 1.9%

What do the screens show for `Cc1ccccc1S(=O)(=O)Cc1ccc(C(=O)NC(C)c2ccc3c(c2)OCCO3)o1` (centres undefined)?
VDR inhibitor: 1.5%

How did CCc1ccc(-c2nc3cc(NC(=O)c4ccc(F)cc4)ccc3o2)cc1 do in these assays?
VDR inhibitor: -2.0%

Results for COC(=O)C1(C)NC(c2ccc(Cl)cc2)C2C(=O)N(c3ccccc3)C(=O)C21 (centres undefined) ?
VDR inhibitor: -14.4%

What do the screens show for `O=C(O)C1NCCN(C(=O)c2ccc3c(ccc4ccccc43)c2)C1C(=O)O` (centres undefined)?
VDR inhibitor: -0.5%

Results for CC(=O)OC1CC2C(C)(C)CCC(=O)[C@@]2(C)C2CC[C@@]3(C)C(c4ccoc4)OC(=O)C4OC43[C@]12C (some centres undefined) ?
VDR inhibitor: 1.2%

What do the screens show for `CNC(=O)CSc1nnc(-c2cccnc2)n1-c1ccc(C)cc1`?
VDR inhibitor: 3.0%

What do the screens show for `Cc1cc(NC(=O)C(C)Sc2nc(-c3ccccc3)cc(=O)[nH]2)no1` (centres undefined)?
VDR inhibitor: -0.6%

What do the screens show for `O=c1cc(CSc2nc3cc(Cl)ccc3o2)nc2sccn12`?
VDR inhibitor: -4.1%

What do the screens show for `O=C(NCCn1ccc2ccccc21)C1CCCCC1`?
VDR inhibitor: 2.2%

What do the screens show for `CC(C)S(=O)(=O)c1csc(NC(=O)Nc2ccc(Cl)cc2)c1`?
VDR inhibitor: -4.1%

What do the screens show for `C=CCC(c1ccccc1)N(C(C)=O)c1ccco1` (centres undefined)?
VDR inhibitor: 15.2%

How did O=C(CSc1nccn(-c2ccc(F)c(Cl)c2)c1=O)NC1CCCC1 do in these assays?
VDR inhibitor: -19.5%

How did O=C(Cn1ncc(Cl)c(Cl)c1=O)c1ccc(Cl)cc1 do in these assays?
VDR inhibitor: -6.3%

How did CC12CS(=O)(=O)CC1SC(=S)N2c1ccccn1 (centres undefined) do in these assays?
VDR inhibitor: 14.6%

Results for COc1ccc(-c2nc3ccccc3c(=O)n2-c2c(C)n(C)n(-c3ccccc3)c2=O)cc1 ?
VDR inhibitor: -5.3%

Results for Cc1cc(/C=N/n2cnnc2)c(C)n1-c1cc(Cl)ccc1Cl ?
VDR inhibitor: 10.4%

What do the screens show for `Cc1ccc(-n2ncc(C(=O)N3CCN(Cc4ccccc4)CC3)c2C2CCN(C(=O)OC(C)(C)C)CC2)cc1`?
VDR inhibitor: 2.9%

Results for COc1ccc(N(CC(=O)NN=C2CCN(C)CC2)S(=O)(=O)c2ccccc2)c(OC)c1 ?
VDR inhibitor: 13.7%

Results for O=C1C=C(c2cccc3c2oc2ccccc23)C[C@@H](c2ccc(F)cc2)C1 ?
VDR inhibitor: 5.1%

What do the screens show for `CSc1ccc(CN(C)C(=O)c2cccc(S(=O)(=O)NCc3ccccc3)c2)cc1`?
VDR inhibitor: 9.3%
